Assay outcomes from PubChem BioAssay.
CSC inhib – blocks cancer stem cells. cancer stem cell-like cells viability, luminescence. inhibition, % at 7.5 µM. actives 1.1% (n = 300,000);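 active means mean at 75% or more and at least half the replicates too; tested in HMLE shEcad cells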;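 further: 0% = median of negative and 100% = median of positive control wells; the first replicate is given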
Rce1 inh – yeast Ras-converting enzyme inhibition. AID 2563. Q03530. actives 0.27% (n = 290,000). calls only. yeast membranes, quenched prenylated peptide cleavage fluorescence;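 active means fall in fluorescence gain of 50% or more versus controls, with final raw signal at or below 3038400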;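 further: plate controls were neutral control wells for no effect and wells lacking membranes for full effect; tested at 10 µM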
Target sequence (Q03530 whole entry, looked up): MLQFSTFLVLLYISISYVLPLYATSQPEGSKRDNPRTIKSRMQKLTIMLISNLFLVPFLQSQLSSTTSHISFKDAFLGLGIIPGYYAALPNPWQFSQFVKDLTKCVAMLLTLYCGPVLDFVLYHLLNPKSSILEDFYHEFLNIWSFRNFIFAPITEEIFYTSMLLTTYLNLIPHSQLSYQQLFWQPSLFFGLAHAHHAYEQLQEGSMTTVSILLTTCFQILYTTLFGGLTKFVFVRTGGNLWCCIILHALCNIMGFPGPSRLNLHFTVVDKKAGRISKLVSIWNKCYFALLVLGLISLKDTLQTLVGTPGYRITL
MT1-MMP act inh – blocks activation of human MT1-MMP | P50281 | HT1080 RFP-PRO-GFP cells, GFP/RFP ratio fluorescence, overnight; percent of plate control window, DMSO zero | GFP/RFP ratio change, % at 20 µM | actives 0.061% (n = 360,000);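 active means GFP/RFP ratio change of at least 30% with cell ATP level not reduced by more than half and red fluorescence within 50% of control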; further: strong numbers were not always called active
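Material – HT1080 RFP-PRO-GFP cells · Control set – DMSO wells and RFP-L50D-GFP cells · Incubation – overnight cell settling, then overnight compound exposure, 37 °C, 5% CO2 · Compound dosing – single-point 20 µM compound, 1% DMSO · Read-out – GFP/RFP fluorescence ratio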
eIF4H FP inh – inhibitors of RNA binding by human eIF4H | actives 0.94% (n = 290,000) | Q15056 | inhibition, % at 35 µM | eIF4H fluorescence polarization binding assay;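 active means 50% or more with normal probe brightness, or confirmed in later tests; about a fifth of its hits are not listed in these tables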;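 further: calls also rest on retests at 20 µM and on dose response follow-up; 0% = protein and probe with vehicle and 100% = probe without protein; strong numbers were not always called active; many hits fall short of the cut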
UUG fidelity – modulators of start codon recognition fidelity in yeast. S. cerevisiae UUG-firefly luciferase reporter, luminescence/redox ratio. AID 602363. actives 0.13% (n = 350,000). activity score, % at 18.7 µM;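 active means replicate mean at a twofold rise or more, about +100% in these data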;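 further: firefly luciferase made from a UUG start codon reports start codon fidelity; reporter light over untreated wells divided by growth signal over untreated wells; some hits fall short of that in this replicate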
PABP FP inh – blocks human PABP binding to poly(A) RNA; P11940; fluorescence polarization; inhibition, % at 35 µM; actives 1% (n = 290,000); AID 2014;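 active means 50% or more with normal probe brightness, or confirmed in later tests; about a fifth of its hits are not listed in these tables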;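 further: calls also rest on retests at 20 µM and on dose response follow-up; controls were probe without protein and protein plus probe with vehicle; some compounds called inactive have numbers as strong as hits; many hits fall short of the cut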
HIV Env fusion – inhibitors of HIV Env-mediated cell fusion; AID 651610; inhibition, % at 12.3 µM; actives 1.1% (n = 360,000); HeLa-JRFL Env/CEM21 cell fusion, luciferase;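 active means mean replicate inhibition score of at least 50 and every replicate individually at or above 50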;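 further: 0% = plate neutral controls and 100% = maraviroc near 300 nM; one replicate is shown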
eIF4H FP inh retest – further read-out of eIF4H FP inh, marked with its call; inhibition, %; compound at 20 µM; confirmation average;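 mean of two retest wells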
PABP FP inh retest – recorded beside PABP FP inh, whose call it bears; inhibition, %; compound at 20 µM; confirmation repeats;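 mean of two retest wells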
MT1-MMP act inh RFP – further read-out of MT1-MMP act inh, marked with its call; RFP signal change, %; measured here: RFP expression control read;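 0 = vehicle wells; hits needed this value within 50% of zero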
Numbers without * were called inactive; i = inactive; / = no result given; & = joins results of further samples. The list is partial (hit frequency here may not be typical).

SMILES	CSC inhib	Rce1 inh	MT1-MMP act inh	MT1-MMP act inh RFP	eIF4H FP inh	UUG fidelity	PABP FP inh	HIV Env fusion	others
CCOC(=O)N1CCN(C(=O)CCc2ccc(S(=O)(=O)NCC(C)C)cc2)CC1	-4	i	2	2	/	7	/	-6
O=C(CN1CCN(C(=O)N2CCOCC2)CC1)Nc1ccc(Br)cc1	6	/	1	4	-6	-12	13	/
O=C(COc1ccc(Cl)cc1Br)N1CCN(S(=O)(=O)c2ccccc2)CC1	/	i	-8	-3	-6	-7	5	20
COc1ccc(/C=C2/C(=O)N(c3nc4ccccc4s3)N=C2CSc2ccc(Cl)cc2)cc1	92*	i	9	4	9	/	5	9
CNc1nc(C)cc(C)c1S(=O)(=O)c1ccc(Cl)cc1	-2	i	2	-6	-6	/	-5	/
COc1ccc(OC)c(CC(NC(C)=O)C(=O)NC2CCN(C(=O)c3cccc(C)c3)CC2)c1 (stereo not drawn)	/	i	-2	0	3	-3	-4	15
COc1cc(CNc2cccc(F)c2)cc(Br)c1O	10	i	3	4	27	-2	44	/
CC(/C=N/NC(=O)c1cc(-c2cccn2C)n[nH]1)=C\c1ccccc1	46	i	13	2	-4	3	10	-16
COc1ccc(Cl)cc1NC(=O)COC(=O)C1CC1	-15	/	-1	3	/	-5	/	/
O=C(COC(=O)CNC(=O)c1ccccc1)NC12CC3CC(CC(C3)C1)C2	/	/	1	4	/	3	/	11
CC(C)[C@H](NC(=O)c1ccco1)C(=O)OCC(=O)Nc1ccccc1OC(F)F	/	i	-2	-2	-4	-8	-8	5
CCn1cnc2c1c(=O)n(CC(=O)NCc1ccccc1)c(=O)n2Cc1ccccc1	-17	i	6	3	1	-8	-5	-4
O=C(c1cc(COc2cccc(C(F)(F)F)c2)on1)N1CCCC1	/	/	0	-1	/	-17	/	-19
CC1(C(=O)NS(=O)(=O)c2ccccc2)CCN1C(=O)COc1ccc(Cl)cc1 (stereo not drawn)	/	/	-4	2	/	-8	/	3
Cc1nc2sccn2c(=O)c1S(=O)(=O)N1CCN(c2ccccc2F)CC1	/	/	5	1	/	-5	/	-28
Cc1ccc(CN(C(=O)CNC(=O)c2cccs2)C(C(=O)NCC2CCCO2)c2ccccc2)cc1 (stereo not drawn)	-17	i	-5	1	-11	/	-6	-8
FC(F)Sc1ccc(NC(=S)NCC2CCCCC2)cc1	48	i	-32	-31	4	-32	-3	/
CCOC(=O)NNC(=O)c1[nH]c2ccc(Br)cc2c1-c1ccccc1	8	i	-1	-5	0	-12	-2	3
COc1ccc(NC(=O)c2ccco2)cc1NC(=O)c1ccc(C)cc1	-3	i	8	6	-1	10	-7	-45
CC(=O)N1c2ccc(S(=O)(=O)N3CCC(C(=O)NC4CCC(C)CC4)CC3)cc2CC1C (stereo not drawn)	-11	i	1	1	/	/	/	-5
CCN(CC)c1ccc(-c2n[nH]c(=S)n2-c2ccccc2)cc1	47	i	-8	-11	3.4*	/	75	-96	eIF4H FP inh retest=87*;PABP FP inh retest=25
COCCNC(=O)c1ccc2c(c1)ncn2-c1ccc(C)c(Cl)c1	-18	i	-2	-4	0	-21	-1	24
COc1cccc(CN(C)C(=O)c2cc(S(=O)(=O)N3CCCC3)ccc2C)c1OC	4	/	6	-9	/	2	/	5
COCCNC(=O)c1cc2c3ccccc3n(C)c2s1	-15	i	6	-1	-10	-6	-1	-37
CCn1c(=O)cc(SCC(=O)N2CCN(c3ccccc3OC)CC2)c2ccccc21	/	i	11	0	-2	5	-1	19
Cc1[nH]ncc1-c1nc2ccccc2[nH]1	/	i	-2	0	8	-37	14	-24
Cc1cc(C)c(S(=O)(=O)N2CCN(C(=O)c3cc4ccccc4oc3=O)CC2)c(C)c1	-14	/	-4	-4	/	-6	/	-5
COc1ccc(NC(=O)CSc2nnnn2C2CCCCC2)cc1	-9	i	1	2	-4	-18	3	10
CCN1C[C@@H]2[C@@H]3C(=O)N(C)C(=O)[C@@H]3[C@](C)(C1=O)N2C(=O)c1ccc(Cl)cc1	/	/	-1	5	/	5	/	-29
Cc1ccc(C(=O)c2cncc(Br)c2)cc1	-3	i	-10	-6	2	-22	2	28
CCOC(=O)C1=C(CNCc2ccccc2Cl)NC(=O)NC1c1ccc2c(c1)OCO2 (stereo not drawn)	/	i	2	-1	-12	-2	-10	/
COC(=O)CSC(C)C(=O)Nc1nnc(C(C)C)s1 (stereo not drawn)	-7	i	-4	0	1	-11	-7	3
Cc1ccc(C(=O)NC2CCCCCC2)cc1N1CCCC1=O	-4	i	0	2	-10	-12	8	/
CCOC(=O)c1cc(NC(=O)c2cccs2)ccc1N1CCOCC1	-4	i	6	5	-3	/	-9	-4
CCOc1ccc(NC(=O)CSC(N)=O)cc1	1	i	1	0	-1	5	3	/
COc1ccc(S(=O)(=O)N(C)CC(=O)Nc2ccc3c(c2)OCO3)cc1	-1	i	-1	2	6	/	6	/
COc1ccccc1C(=O)NCCC(=O)NCC1COc2ccccc2O1 (stereo not drawn)	-7	/	-3	0	/	-19	/	/
Cc1nnc(SCC(=O)NC(=O)NCCC(C)C)s1	-14	i	-1	1	-5	/	-1	17
CC(C)Oc1ccc(/C=N/NC(=O)C2CCCN2S(=O)(=O)c2ccc(Cl)cc2)cc1 (stereo not drawn)	1	i	2	0	-10	3	-4	/
COc1ccccc1C1CCN(Cc2c(C)[nH]c3ccccc23)CC1	2	i	-1	3	-18	2	-10	17
Nn1c(Cc2cccc3ccccc23)nnc1SCCOc1ccc(F)cc1	-2	i	5	3	2	/	7	34
CCCn1c(=O)c(C(=O)NCc2ccc3c(c2)OCO3)c(O)c2ccccc21	/	i	1	-3	-6	-7	-3	17
CC(/C=N/NC(=O)c1cccs1)=C\c1ccccc1	-8	i	8	-3	3	-17	-1	-208
O=C(Cn1nc(-c2ccccc2)ccc1=O)NCc1ccc2c(c1)OCO2	-2	i	3	6	-5	-15	-3	/
c1csc(CNc2ncnc3ccc(-c4ccc5c(c4)OCO5)cc23)c1	53	/	2	4	/	-16	/	/
CCOC(=O)c1ccc(S(=O)(=O)N2CCN(C(C)=O)CC2)cc1	-12	i	4	0	-3	-3	-4	-21
O=C(CCS(=O)(=O)c1ccccc1)N(CCCN1CCOCC1)c1nc2c(F)cccc2s1	/	i	4	-2	/	-2	/	-11
O[C@H]1C[C@H](c2ccc(Cl)cc2)N(CC2CCCCC2)C[C@@H]1n1cc(-c2ccc(F)cc2)nn1	/	/	1	0	/	-8	/	8
COC(=O)c1ccc(C23CC4(C2)[C@H](CN(Cc2ccc(C(F)(F)F)cc2)[C@@H]4c2ccccc2)C3c2ccccc2)cc1 (stereo partly drawn)	2	i	3	-11	0	-23	-10	/
COc1ccc(NC(=O)CSc2nnc3n2CCCCC3)cc1S(=O)(=O)N(C)C	/	/	5	5	/	-6	/	9
COc1ccc2[nH]c(=O)c(CN(CC3CCCO3)C(=O)Nc3ccc(F)cc3)cc2c1 (stereo not drawn)	/	i	-3	-9	-5	8	0	/
CNC(=O)C1Cc2ccccc2CN1S(=O)(=O)c1ccc(OC)c(OC)c1 (stereo not drawn)	-11	i	0	6	-1	-7	11	1
O=C(COC(=O)CCN=C1NS(=O)(=O)c2ccccc21)NC1CCCCCCC1	0	i	1	1	-6	0	2	20
C[C@@H]1CN([C@@H](C)CO)C(=O)Cc2cc(NC(=O)C3CCCCC3)ccc2O[C@H]1CN(C)S(=O)(=O)c1ccccc1	8	/	-3	-2	/	12&13	/	63*
CCOC(=O)N1CCN(S(=O)(=O)c2cn(C)c(=O)n(C)c2=O)CC1	-3	i	-3	2	-7	-13	-3	-13
COC(=O)Nc1nc(-c2ccccc2)c(C(=O)c2ccc(Cl)cc2)s1	57	i	8	-6	6	-18	6	/
COc1cc(N)c(Cl)cc1C(=O)OCC(=O)N1CCCCCC1	5	/	-7	0	/	/	/	6
COc1ccc(OC)c(NC(=O)C2(C)CCN2C(=O)CCC2CCCC2)c1 (stereo not drawn)	/	/	-3	-11	/	-8	/	13
CCCCC(=O)N(C)c1c(CC)nc2c(OCC(=O)c3ccc(Cl)cc3Cl)cccn12	/	/	-8	-4	/	-10	/	3
O=C(Oc1ccc(N2C(=O)C3C4CCC(C4)C3C2=O)cc1)c1ccco1 (stereo not drawn)	-12	i	1	3	-12	-6	-4	0

Entries above containing a CF3 group:
SMILES	CSC inhib	Rce1 inh	MT1-MMP act inh	MT1-MMP act inh RFP	eIF4H FP inh	UUG fidelity	PABP FP inh	HIV Env fusion	others
O=C(c1cc(COc2cccc(C(F)(F)F)c2)on1)N1CCCC1	/	/	0	-1	/	-17	/	-19
COC(=O)c1ccc(C23CC4(C2)[C@H](CN(Cc2ccc(C(F)(F)F)cc2)[C@@H]4c2ccccc2)C3c2ccccc2)cc1 (stereo partly drawn)	2	i	3	-11	0	-23	-10	/

Carrying on.
SMILES	CSC inhib	Rce1 inh	MT1-MMP act inh	MT1-MMP act inh RFP	eIF4H FP inh	UUG fidelity	PABP FP inh	HIV Env fusion	others
OCC1CCCN(C(=S)Nc2ccc(OC(F)F)cc2)C1 (stereo not drawn)	0	i	-2	2	-1	-22	3	/
Cc1nc2ccc(Cl)cc2c(-c2ccccc2)c1CC(=O)O	-7	i	2	-6	-13	-16	-11	-16
CC(=O)NCCNC(=O)C1CCCCN1S(=O)(=O)c1ccccc1 (stereo not drawn)	3	i	1	3	2	/	10	-14
O=C1OCCN1C(=O)[C@H]1[C@H](c2ccc(Cl)cc2)C(c2ccccc2)=NN1c1ccc(Br)cc1	/	/	-2	-1	/	1	/	2
Cc1ccc(N(CC(=O)N2CCc3ccccc3C2)S(C)(=O)=O)cc1	-9	i	2	1	-2	1	-5	11
NS(=O)(=O)c1ccc(NC(=O)N[C@@H](Cc2ccccc2)C(=O)O)cc1	/	i	2	2	5	-5	1	/
CC(=O)C[C@@H](O)CC(=O)[C@H]1OC(=O)[C@H](C)CCCCc2ccccc21	/	/	-1	7	/	2	/	-10
CCOc1ccccc1CNC(=O)c1nn(CC)cc1[N+](=O)[O-]	-18	i	-3	8	24	/	12	6
CNC(=S)Nc1ccc(-c2nc3ccc(C)cc3s2)cc1	10	i	2	-4	2	-24	10	-149
COc1ccc(-c2nc(-c3ccccc3OC)no2)cc1OC	-14	i	4	-3	-3	3	30	-112
O=S1(=O)C[C@@H](N2CC[C@@H](O)C2)[C@H](COCc2ccccc2)N1	/	/	4	6	/	-4	/	23
CN(C(=O)Cn1nc(C(=O)O)c2ccccc2c1=O)C1CCCCC1	-3	/	4	-4	/	-2	/	-7
O=C(NCCOc1ccccc1)c1ccc2c(c1)S(=O)(=O)c1cc(Cl)ccc1C2=O	-3	/	2	2	/	-13	/	-13
CCOc1ccc(-n2ccnc2SCC(=O)Nc2nnc(C)s2)cc1	-10	i	2	-6	-14	-9	1	/
CC(CCc1ccc(O)cc1)NCc1ccc(Cl)cc1Cl (stereo not drawn)	-3	i	-1	-1	-2	-3	5	4
C1=C(c2ccco2)N2CCN=C2S1	-10	i	4	3	-11	-10	-2	-4
CCN(CC)S(=O)(=O)c1ccc(NC2c3ccccc3C(=O)N2CCN2CCOCC2)cc1 (stereo not drawn)	-7	i	1	7	-10	7	-8	-172
CCc1ccc(CN2CCSCC2)cc1	-6	i	-2	0	13	-5	7	15
COC(=O)C1=C(O)CSC1=Nc1ccc(C)cc1	-24	i	-4	2	9	-16	0	-4
O=C1N(Cc2ccccc2F)c2ccccc2C12OCCCO2	-1	i	0	1	-7	-12	-13	28
O=C(COC(=O)COc1ccc(Cl)cc1)Nc1ccc(F)c([N+](=O)[O-])c1	-4	i	2	3	6	-14	54	-18	eIF4H FP inh retest=-8;PABP FP inh retest=5
